Screening results (PubChem)
LANA-H2A inh – blocks KSHV LANA binding to histone H2A/H2B; actives 0.6% (n = 320,000); cell-free LANA-H2A/H2B peptide, fluorescence polarization; AID 2629; inhibition, % (test concentration not listed); in the data active = inhibition mostly above about 10%, no sharp cut-off; inactive = mostly below about 6.7%;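 note: stock transfer was 7.5 nL into about 10 µL; 0% = median of vehicle wells and 100% = median of positive control wells; one replicate is shown; the record names a cut of 25% in any replicate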
Vif A3G – inhibitors of Vif binding to APOBEC3G peptide, primary screen, biochemical, TR-FRET, GST-Vif 1-94, biotin-A3G peptide, dose response retest (AID 1117319); inhibition, %; hits with a dose series show IC50 in µM; actives 0.57% (n = 260,000); TR-FRET GST-Vif / biotin-A3G peptide binding; higher % means a stronger effect; test concentration not given here; strong numbers were not always called active;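 active = above the screen mean plus three standard deviations and confirmed in dose response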;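 note: Vif residues 1-94 fused to GST binding biotinylated APOBEC3G peptide 110-148; 0% = full assay without inhibitor and 100% = GST in place of GST-Vif; retest series ran down from 100 µM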
HNF4A DNA FP – change in binding of human HNF4 alpha to DNA; P41235; HNF4a-FITC DNA binding, fluorescence polarization, 1 h; activity change, % at 10 µM; actives 0.3% (n = 360,000); AID 1224865; in the data active = activity change above about 30%, passing the limit was not always enough;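 note: controls were the assay level and a saturating level of protein; the project sought stronger binding though the title names inhibitors; some compounds called inactive have numbers as strong as hits; positive values seem to mean higher polarization but the record does not say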
Target sequence (P41235 whole entry, looked up): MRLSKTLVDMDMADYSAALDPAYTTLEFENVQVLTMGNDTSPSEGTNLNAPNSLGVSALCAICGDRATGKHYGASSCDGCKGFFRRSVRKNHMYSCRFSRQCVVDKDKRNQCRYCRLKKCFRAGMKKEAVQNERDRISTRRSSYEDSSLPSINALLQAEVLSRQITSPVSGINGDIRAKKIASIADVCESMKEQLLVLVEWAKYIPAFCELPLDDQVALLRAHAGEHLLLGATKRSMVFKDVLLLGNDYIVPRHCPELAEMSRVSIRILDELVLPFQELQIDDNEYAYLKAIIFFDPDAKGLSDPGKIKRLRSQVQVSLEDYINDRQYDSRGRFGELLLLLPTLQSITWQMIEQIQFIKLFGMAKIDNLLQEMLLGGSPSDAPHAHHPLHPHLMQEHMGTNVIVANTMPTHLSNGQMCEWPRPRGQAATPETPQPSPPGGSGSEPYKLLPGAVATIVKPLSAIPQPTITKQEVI
UCH37 inh – blocks the human deubiquitinase UCH37. Q9Y5K5. purified proteasome/UCH37, Ub-AMC cleavage fluorescence. inhibition, % (no concentration beside the values). actives 0.33% (n = 330,000). AID 588478;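 active = mean of two replicates above 20%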;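 note: 0% = compound-free wells with enzyme and 100% = wells lacking proteasome; stock transfer was 100 nL into about 20 µL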
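assay system = human UCH37 enzyme supplied as purified proteasome complex | amount = proteasome at 0.15 nM in the dispensed enzyme solution | schedule = 30 min compound-proteasome preincubation then 25 min substrate reaction, room temperature | measured by = fluorescence, ex 355 nm, em 460 nm | benchmarks = no-proteasome wells (full inhibition) and compound-free wells (no inhibition)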
Beta2AR agonist – human beta-2 adrenergic receptor agonism by FAP. actives 0.43% (n = 340,000). P07550. Am2.2-beta2AR cells, FAP receptor internalization, flow cytometry; reference of the scale not given here. AID 504454. response, % (test concentration not listed);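 active = response above a set limit, near 3 SD of response in nonfluorescent compounds, cut at about 42% in these data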;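 note: stock transfer was 100 nL into about 11 µL; a reference agonist was the positive control; negative values mostly stem from fluorescent compounds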
Target sequence (P07550 whole entry, looked up): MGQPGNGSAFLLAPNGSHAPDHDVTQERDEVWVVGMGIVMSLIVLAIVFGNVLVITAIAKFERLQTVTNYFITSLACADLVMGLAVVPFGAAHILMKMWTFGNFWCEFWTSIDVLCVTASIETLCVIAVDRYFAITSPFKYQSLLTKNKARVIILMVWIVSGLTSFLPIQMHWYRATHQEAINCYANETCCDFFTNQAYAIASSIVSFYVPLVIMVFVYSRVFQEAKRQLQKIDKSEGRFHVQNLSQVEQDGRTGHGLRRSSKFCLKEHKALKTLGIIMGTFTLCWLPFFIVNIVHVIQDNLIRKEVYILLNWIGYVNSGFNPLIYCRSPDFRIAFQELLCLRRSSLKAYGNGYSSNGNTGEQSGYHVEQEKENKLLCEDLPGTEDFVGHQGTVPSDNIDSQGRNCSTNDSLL
E coli growth – blocks Escherichia coli growth; OD600 absorbance (test concentration not listed); OD600, 23 h; active compounds read low; actives 0.21% (n = 330,000);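 active = OD600 absorbance below the run mean of sample wells minus 3.6 SD, in any replicate, cut at about 0.56 in these data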;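 note: stock transfer was 300 nL into about 60 µL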
A1 inh – inhibitors of the anti-apoptotic protein A1, read as caspase activation. MEF A1-2A-BIM cells, Caspase-Glo 3/7 luminescence, 3 h; percent of clofoctol response, vehicle zero. caspase activation, % (concentration not given with the values). actives 0.066% (n = 330,000);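 active = over half of replicate activation scores above 10%, or exactly half above 10 with the replicate mean above 10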;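 note: wells of about 30 µL received 50 nL stock; many hits fall short of the cut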
Active calls of the source: *; nt = no result given; + = active, no number; & = joins results of further samples.

SMILES	LANA-H2A inh	Vif A3G	HNF4A DNA FP	UCH37 inh	Beta2AR agonist	E coli growth	A1 inh
O=C1C=C(O)C(n2cncn2)C(c2ccc3c(c2)OCO3)C1 (stereo unspecified)	nt	8%	1.1	-0.6	2	0.69	0.8
COc1ccc(C)cc1-n1nnnc1SCc1cn2ccsc2n1	4.3	17%	0.6	3.9	23	0.71	-0.5
C=CCN(CC=C)C(=O)CN1C(=O)NC(Cc2c[nH]c3ccccc23)C1=O (stereo unspecified)	1.6	nt	-0.1	4.9	1	0.7	-0.6
CC(=O)Nc1ccc(C(=O)COC(=O)C2CC2)c(F)c1	nt	12%	-4.5	0.2	-7	0.62	nt
Cc1cccc(Cc2ncc(C(F)(F)F)cc2Cl)c1	0.1	-4%	0.9	0.9	-10	0.67	1.3
Cc1ccc(-n2nnnc2SCC(=O)N2CCN(C(=O)c3ccco3)CC2)c(C)c1	6.0	-4%	-0.8	3.7	-3	0.73	0.7
CCOC(=O)c1[nH]c(C)c(C(=O)NC)c1C	nt	1%	1.0	-0.2	-4	0.72	nt
CCOC(=O)c1c(-c2ccccc2)nc2c(C)cccn12	0.0	12%	-6.1	2.4	-14	0.71	-0.7
CC(C)N1C(=S)N(Cc2ccco2)C(=O)C1CC(=O)Nc1ccccc1 (stereo unspecified)	-0.1	5%	-0.6	0.3	-2	0.71	-0.3
COc1ccc(Br)cc1/C=N/n1nnnc1N	-4.0	-5%	-0.9	nt	14	nt	-0.7
CC1CN(C(=O)CN2C(=O)NC3(CCCC3)C2=O)C(=Nc2cccc(S(=O)(=O)N(C)C)c2)S1 (stereo unspecified)	1.4	0%	-0.6	1.4	10	0.68	0.3
COc1ccc(C(=O)NCC(=O)N2CCCC(C(F)(F)F)C2)cc1OC (stereo unspecified)	5.8	-5%	4.0	1.5	-5	0.7	-0.1
CCCn1c2c(c(O)c(C(=O)Nc3nc4ccccc4s3)c1=O)CCCC2	0.9	nt	-0.2	-196	3	0.7	0.0
O=C(COC(=O)/C=C/c1ccco1)NCc1ccccc1Cl	2.6	22%	2.0	1.8	-2	0.66	-0.5
Cc1ccc(C(=O)NC(=S)Nc2ccc3[nH]c(=O)[nH]c3c2)cc1	-4.8	nt	4.3	3.7	3	0.71	1.0
Cc1ccc(S(=O)(=O)Nc2cc3c4c(c2)CCC(=O)N4CCC3)cc1	1.0	10%	2.5	0.2	-2	0.63	0.2
O=C(c1ccncc1)N1N=C(c2ccc(Br)cc2)CC1c1ccccc1O (stereo unspecified)	4.3	nt	-1.4	5.3	-9	0.67	1.3
Cc1ccc(S(=O)(=O)N2CCN(CC(=O)Nc3ccc(N4CCOCC4)cc3)CC2)cc1C	4.7	nt	-2.3	2.9	-3	0.67	1.2
CN(CC(=O)NCCc1ccc(Cl)cc1)S(=O)(=O)c1cccs1	0.9	nt	0.4	1.2	-20	0.7	1.3
N#CCC(=O)NNC(=S)NC(=O)C(c1ccccc1)c1ccccc1	1.8	-5%	1.5	3.0	-1	0.67	0.5
COc1ccc(C2C(C(=O)c3ccco3)=C(O)C(=O)N2CCOCCO)cc1OC (stereo unspecified)	-0.2	9%	0.5	9.9	5	0.64	-0.7
NC(=O)CN1CCN(C2CC(=O)N(CCc3ccccc3)C2=O)CC1 (stereo unspecified)	-0.4	-3%	-0.4	1.3	0	0.68	0.3
CC12CC(=O)C3C(CCC4=CC(=O)CCC43C)C1CC=C2CC(=O)O (stereo unspecified)	nt	-3%	1.4	2.8	3	0.66	nt
Cc1ccccc1NC(=O)C(=O)NC(C)CCc1ccccc1 (stereo unspecified)	3.7	-1%	0.2	3.2	-7	0.67	-0.3
CCc1ccc(Nc2cc(C)nc3ncnn23)cc1	0.8	nt	-0.3	0.9	8	0.65	1.6

2 of the compounds above, as labelled records.
mol: N#CCC(=O)NNC(=S)NC(=O)C(c1ccccc1)c1ccccc1
  LANA-H2A inh: 1.8 | Vif A3G: -5% | HNF4A DNA FP: 1.5 | UCH37 inh: 3.0 | Beta2AR agonist: -1 | E coli growth: 0.67 | A1 inh: 0.5

mol: CN(CC(=O)NCCc1ccc(Cl)cc1)S(=O)(=O)c1cccs1
  LANA-H2A inh: 0.9 | Vif A3G: nt | HNF4A DNA FP: 0.4 | UCH37 inh: 1.2 | Beta2AR agonist: -20 | E coli growth: 0.7 | A1 inh: 1.3

Next part
SMILES	LANA-H2A inh	Vif A3G	HNF4A DNA FP	UCH37 inh	Beta2AR agonist	E coli growth	A1 inh
CCCOc1ccc(/C=C/C(=O)N2CCOCC2)cc1	2.2	nt	-3.8	8.4	8	0.69	-1.5
COc1ccc(OC)c(NC(=O)CN(C)CC(=O)Nc2ccccc2Cl)c1	3.7	-6%	3.1	1.6	1	0.68	1.1
CC1(C)CC2(CCCN3C(=O)CSC32)CCS1 (stereo unspecified)	4.0	5%	1.4	0.8	4	0.76	1.5
CCSc1nnc(NC(=O)CSc2nnc(CNC(=O)c3ccc(OC)c(OC)c3)o2)s1	-7.3	12%	2.1	2.7	12	0.68	0.6
COc1ccc(OC)c(Cc2nnc(CCC(=O)NCc3ccc(C)s3)o2)c1	-0.6	1%	0.5	4.4	2	0.67	0.0
CC1CCN(C(=S)c2ccc(O)cc2)CC1	5.3	0%	0.2	1.0	-1	0.73	0.0
COc1ccc(CCN2CC(C(=O)Nc3cc(F)ccc3F)CC2=O)cc1OC (stereo unspecified)	-3.5	-6%	-4.1	-0.9	1	0.63	1.1
O=C(CC12CC3CC(CC(C3)C1)C2)NCc1ccco1	7.0	-4%	-3.0	0.9	-4	0.66	-0.7
CC(C)(C)c1nnc(N/N=C/c2cc(Br)ccc2O)n(N)c1=O	+	16%	-2.9	nt	6	nt	0.1
COc1ccc2[nH]cc(C(=O)NCCc3ccccc3)c(=O)c2c1	-3.3	nt	-2.7	-0.7	6	0.68	-0.2
O=C(Oc1ccc2cccc(OC(=O)N3CCOCC3)c2c1)N1CCOCC1	-0.4	2%	-0.3	2.3	-2	0.74	2.0
CCCCNC(=O)Nc1nc2ccccc2s1	-2.7	-2%	0.1	5.8	-6	0.64	-0.5
CCn1c(SCC(=O)Nc2cc(C)on2)nnc1-c1ccc(C)cc1	6.5	nt	-2.6	4.5	1	0.68	-0.3
CC(=O)c1ccc(NC(=O)CSc2nc(=O)n3cccc(C)c3n2)cc1	-0.1	4%	-0.1	3.1	-5	0.69	0.0
Cc1nc2ccc([N+](=O)[O-])cc2nc1C	-0.6	12%	-3.0	3.0	2	0.71	-0.3
COc1ccccc1NC(=O)CSc1ncn[nH]1	0.4	8%	0.9	1.0	3	0.7	1.1
COc1ccc2sc(-c3ccccc3OC)c(-c3ccc(OC)nc3)c2c1	0.1	nt	2.6	-0.9	-2	0.79	-0.7
CCC(C)n1nccc1NC(=O)C(C)Cl (stereo unspecified)	5.2	5%	-1.3	0.5	0	0.7	0.9
N#CC1=C(N)Oc2n[nH]c(-c3ccccc3)c2C12C(=O)Nc1ccccc12 (stereo unspecified)	-2.5	0%	-4.4	-1.1	3	0.68	0.0
CN(C)c1cccc(C(=O)OCC(=O)NC2CCCC2)c1	-4.5	-13%	-3.4	-7.4	-4	0.64	1.6
CCCCN1C(=O)C(NC(C)=O)c2ccccc21 (stereo unspecified)	2.2	-1%	1.9	-0.7	0	0.71	0.9
COc1ccc(S(=O)(=O)Nc2c(F)cccc2F)cc1	-6.9	3%	-15	1.5	-11	0.69	1.0
O=C(/C=C/c1ccc(F)cc1)Nc1cccc(S(=O)(=O)N2CCOCC2)c1	-1.0	-3%	-0.3	1.3	1	0.64	-1.9
Nc1nc(N)c(N=Nc2ccc(S(N)(=O)=O)cc2)c(=O)[nH]1	1.3	2%	2.8	nt	-28	nt	-1.3
COc1ccc(-c2noc3c2-c2nc(-c4ccc(C)cc4)sc2CC3)cc1	-1.1	nt	19	2.6	3	0.76	-2.1

Going on with the list.
SMILES	LANA-H2A inh	Vif A3G	HNF4A DNA FP	UCH37 inh	Beta2AR agonist	E coli growth	A1 inh
Cc1ccc(S(=O)(=O)N2CCC(C(=O)N3CCC(C(=O)NCc4cccnc4)CC3)CC2)cc1	-2.9	-4%&-4%	4.5	0.7	-7	0.64	0.3
O=C(c1ccco1)N1CCN=C1SCc1ccccc1Cl	-0.3	0%	2.0	8.4	-7	0.76	1.1
C=CCc1c(C)nc(-c2ccccc2)nc1Nc1ccccc1O	-0.8	5%	8.9	-0.5	-343	0.67	-0.6
O=C(NCc1ccco1)c1cccs1	-2.9	2%	-3.3	5.8	3	0.69	-0.9
Cc1cc(NC(=O)COC(=O)C2CC(=O)N(c3ccccc3Cl)C2)no1 (stereo unspecified)	-5.2	4%	-0.7	3.5	-1	0.67	0.7
COc1cccc(C(=O)Nc2cc(NC(=O)c3cccs3)ccc2C)c1OC	-6.1	1%	0.1	0.8	9	0.65	0.6
Oc1ccccc1-c1nc2ccccc2nc1-c1ccccc1	-2.4	9%	4.7	4.7	-16	0.67	0.0
CN(C)CCCN(C(=O)CCc1ccccc1)c1nc2c(F)cccc2s1	-1.0	nt	2.1	-0.4	-9	0.65	0.9
COc1cccc(N2CCN(C(=S)Nc3cccc(C)c3)CC2)c1	2.6	-5%	-1.1	0.4	14	0.67	-0.4
COc1ccc(C)cc1NC(=O)CN(Cc1nnc(-c2ccc(Cl)cc2)o1)C1CCCC1	1.1	-2%	0.9	3.1	-1	0.74	0.5
CN(C)S(=O)(=O)N1CCC(Oc2cccc(C(=O)NC3CCCCC3)c2)CC1	0.3	nt	-50	4.2	4	0.67	-0.7
O=c1nc2c(O)cccn2c2c1c(=O)[nH]c1ccccc12	nt	nt	-78	-6.0	-10	0.62	nt
Nn1cc(-c2ccccc2)nc1SCC(=O)Nc1ccc(S(N)(=O)=O)cc1	1.4	4%	2.6	2.6	2	0.72	-1.4
O=c1c2sccc2nc(SCc2cc(=O)n3ccccc3n2)n1Cc1ccccn1	3.9	2%	nt	-14	nt	0.66	-1.3
O=c1nc2ccccc2c(NS(=O)(=O)c2ccc(Cl)cc2)n1-c1ccccc1	-2.8	9%	3.5	-0.3	-3	0.74	-5.3
COc1ccccc1NC(=O)c1cc2ccccc2nc1C	1.3	-14%	1.2	2.7	-5	0.71	1.2
N#C/C(=C(/O)CN1CCCC1)c1nc(-c2ccccc2)cs1	-5.6	1%	7.7	5.4	6	0.68	0.0
CC(C)(C)c1ccc(COn2c(=O)c(-c3ccco3)[n+]([O-])c3ccccc32)cc1	-5.4	14%	17	-28	3	0.72	1.6
CC(=O)N1c2ccc(S(=O)(=O)CCC(=O)O)cc2CC1C (stereo unspecified)	-0.9	-5%	-0.3	1.6	-7	0.74	-0.5
CCOc1ccccc1N(CC(=O)N/N=C/c1cc(Br)ccc1OC)S(C)(=O)=O	-1.9	10%	-2.7	nt	-4	nt	0.8
S=c1[nH]nc(-c2ccco2)n1/N=C/c1ccc(Cl)cc1	3.5	nt	-1.6	nt	6	nt	-0.4
CCCCNS(=O)(=O)c1ccc2nc(-c3cccnc3)cc(C(=O)NCCCN(CC)CC)c2c1	-6.4	20%	nt	1.7	nt	0.67	0.7
CC(C)n1c(SCC(=O)N2CCCCC2)nc2c1c(=O)n(C)c(=O)n2C	-5.8	nt	5.1	1.1	-4	0.66	-0.4
O=C1CC/C=C\C[C@@H](CC(=O)N(CCO)Cc2ccccc2)C(=O)N2CCC[C@H]2CO1	14	nt	0.7	2.1	4	nt	1.4
CCN/C=C(\C#N)S(=O)(=O)c1ccc(Br)cc1	-3.9	-12%	0.8	2.1	1	0.68	-0.1
Cc1ccc(NC(=O)c2c(C)noc2C)cc1	4.6	-2%	-1.8	-1.1	13	0.69	0.0
NC(=O)CC(NC(=O)Cc1ccc(Br)cc1)c1ccc(NCc2ccc(F)cc2)c([N+](=O)[O-])c1 (stereo unspecified)	5.4	-8%	31	4.1	-3	0.68	0.5

Compounds were not picked by outcome; about 2.1% have a hit in one of these screens.
